High-throughput results from PubChem.
Sfp inh = blocks B. subtilis Sfp PPTase activity. Q9F4F7. Biochemical Sfp PPTase activity, qHTS. Potency, µM, for inactives: max response, negative = inhibition, hits mostly inhibitors. 310,000 tested, 3.5% active. AID 1490; active = well fitted inhibition curve with a large enough effect; inconclusive = small, poorly fitted or top-dose-only effect, or another doubt; inactive = no such curve, though single readings can be large or run the other way;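 also: the enzyme is Sfp with the accession as filed and its product quenches rhodamine fluorescence; potency is read from the fitted curve at half-maximal effect; 0% = enzyme reaction without inhibitor and -100% = no enzyme wells; top concentration of the series not given in the record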
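Step 1, compound plus 15 nM Sfp-PPTase, 15 min, room temperature. Step 2, add rhodamine-CoA (5 uM) and BHQ-2-YbbR (12.5 uM). Step 3, read 525/598 nm fluorescence at 0 and 30 min.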
Menin-MLL FL inh = menin-MLL binding inhibition, fluorescein peptide. Fluorescence polarization, fluorescein-MLL peptide displacement from menin. FP activity change, % at 61.4 µM. 290,000 tested, under 10 active. AID 1766; inconclusive = falling polarisation curve, or a change in total fluorescence; inactive = total fluorescence flat and polarisation flat or rising; no compound was filed as active; the % refers to the polarisation; negative = inhibition;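 also: % of control where 0% means no effect; inhibitors lower the polarisation; unlabelled MLL peptide was the positive control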
ClpP mod = qHTS Assay for Activators of ClpP. ATP-dependent Clp protease proteolytic subunit (Bacillus subtilis (strain 168)), P80244. purified B. subtilis ClpP, FRET peptide cleavage, 20 min. 340,000 tested, 1.9% active. AID 651965, 2013. Potency, µM (doses to about 57.5 µM), for inactives: top-dose activity change, negative = active; active = well fitted falling curve with a large enough effect; inconclusive = small, poorly fitted or top-dose-only effect; inactive = no such curve, though single readings can be large or run the other way; also: potency is read from the fitted curve at half-maximal effect; the source files actives as falling curves though it sought activators and does not explain the sign; nearly all actives have a fitted effect of over 65% in size; many hits overshoot -100%
Target sequence (P80244 whole entry, looked up): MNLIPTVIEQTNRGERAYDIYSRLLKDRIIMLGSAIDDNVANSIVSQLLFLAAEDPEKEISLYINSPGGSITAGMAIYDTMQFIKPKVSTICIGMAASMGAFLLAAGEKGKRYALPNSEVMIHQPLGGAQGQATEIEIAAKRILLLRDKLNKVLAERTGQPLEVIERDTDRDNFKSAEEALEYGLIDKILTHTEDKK
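Buffer: 100 mM Tris/HCl pH8, 100 mM KCl, 0.05% low protease BSA, 2.5% glycerol, 0.01% Tween-20. ClpP 10 microg/mL final; 20 min RT; delta FRET normalized to ADEP and DMSO controls.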
gsp antag = antagonizes gsp, the McCune-Albright syndrome mutation; 340,000 tested, 0.4% active; Potency, µM (top dose mostly 76.9 µM), without a hit: top-dose activity change, negative = inhibition, most hits filed as inhibitors; gsp-mutant cells, cAMP HTRF, 30 min; control for the full effect not named in the record; active = falling curve of any shape with a large fitted effect; inconclusive = falling curve, mostly with a smaller effect; inactive = flat or rising curve; cell line not stated here;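 also: intracellular cAMP measured with PDE inhibitor Ro 20-1724 present during compound exposure; potency is read from the fitted curve at half-maximal effect; % is scaled to controls: 0 for no effect and ±100 for the full control effect; nearly all actives have a fitted effect of over 65% in size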
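Measurement of cellular cAMP by homogeneous time-resolved fluorescence following a 30 min compound exposure at 37C. The PDE inhibitor […] was present throughout; the assay buffer was DPBS with 0.05% BSA and 0.005% Tween 20.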
TRPV1 PAM = human TRPV1 potentiation. Q8NER1. TRPV1-expressing cells, Fluo-8 calcium influx, capsaicin EC20 potentiation; host cell line not named in the record; control for the full effect not named in the record. potentiation, % at 8.33 µM. 320,000 tested, 0.02% active; active means potentiation above 80%; inconclusive means 30% to 80%; inactive means below 30%; also: 0% is about no effect
Target sequence (Q8NER1 whole entry, looked up): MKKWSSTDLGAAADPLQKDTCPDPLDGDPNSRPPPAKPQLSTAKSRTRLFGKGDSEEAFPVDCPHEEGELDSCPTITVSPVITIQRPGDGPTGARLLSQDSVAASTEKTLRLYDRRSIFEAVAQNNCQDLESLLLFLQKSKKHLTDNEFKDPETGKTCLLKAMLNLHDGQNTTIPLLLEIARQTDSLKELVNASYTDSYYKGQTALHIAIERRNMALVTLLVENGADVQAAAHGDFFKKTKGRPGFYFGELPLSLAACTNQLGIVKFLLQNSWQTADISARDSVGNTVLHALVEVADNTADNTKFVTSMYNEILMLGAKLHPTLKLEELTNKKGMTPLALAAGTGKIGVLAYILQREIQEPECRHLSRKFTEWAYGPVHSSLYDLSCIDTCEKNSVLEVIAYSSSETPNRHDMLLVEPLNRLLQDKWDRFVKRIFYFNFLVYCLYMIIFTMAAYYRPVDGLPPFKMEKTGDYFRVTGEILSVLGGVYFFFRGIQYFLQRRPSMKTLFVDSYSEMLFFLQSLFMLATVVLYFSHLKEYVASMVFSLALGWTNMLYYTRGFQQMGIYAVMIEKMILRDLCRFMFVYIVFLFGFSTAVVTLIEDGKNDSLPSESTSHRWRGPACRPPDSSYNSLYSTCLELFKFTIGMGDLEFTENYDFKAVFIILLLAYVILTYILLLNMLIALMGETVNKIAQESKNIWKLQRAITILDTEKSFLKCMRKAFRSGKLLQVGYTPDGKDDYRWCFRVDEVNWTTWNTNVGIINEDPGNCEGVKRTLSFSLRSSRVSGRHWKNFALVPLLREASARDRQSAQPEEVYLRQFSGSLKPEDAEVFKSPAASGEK
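TRPV1-expressing cells were cultured overnight at 35.5C and loaded with Fluo-8 calcium dye for 40 to 90 min at room temperature. After a 10 s baseline, compound was added and calcium influx was read kinetically for 3 min (ex 480/em 520 nm).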
gsp agonist = agonists of gsp mutant (McCune-Albright syndrome). gsp mutant cells, cAMP HTRF, 30 min; control for the full effect not named in the record. Potency, µM (highest dose often 76.9 µM), without a hit: top-dose activation (cAMP increase), actives largely listed as activators. 340,000 tested, 0.13% active; active = well fitted activation curve with a large enough effect; inconclusive = small, poorly fitted or top-dose-only effect, or another doubt; inactive = no such curve, though single readings can be large or run the other way; cell line not stated here;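 also: phosphodiesterase inhibitor Ro 20-1724 added with compounds to block cAMP breakdown; potency is read from the fitted curve at half-maximal effect; nearly all actives have a fitted effect of over 60% in size; about a fifth of the inactives were tested at one dose only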
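Cells stably selected in G418 were plated at 2000/well, grown 16-24 hr, then given compounds in DMSO with the PDE inhibitor […] (300 uM solution added) for 30 min at 37C; cAMP was read by HTRF.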
CtBP-E1A blk = CtBP/E1A binding inhibition | 340,000 tested, 0.49% active | activity change, % (concentration not given with the values) | AlphaScreen GST-E1A/His-CtBP binding, 1536-well; hits give low values; control for the full effect not named in the record; in the data active means activity change below about -65%; inconclusive means about -30% to -65%; inactive means above about -30%; also: % is scaled to controls: 0 for no effect and ±100 for the full control effect
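AlphaScreen with 125 nM GST-E1A and 125 nM His-CtBP (5X stocks) in Tris pH 8.0, 300 mM NaCl, BSA, Tween 20, TCEP. Compounds preincubated 2 h at 37 deg C, then glutathione donor/nickel acceptor beads added for 1 h at 37 deg C in dark.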
Starred values were filed as active, the others as inactive; ? = inconclusive; · = not tested or not shown; & = joins results of further samples; [ ] = remark or other dose.

Sequence of screens: CtBP-E1A blk	gsp agonist	ClpP mod	Menin-MLL FL inh	Sfp inh	TRPV1 PAM	gsp antag
1) O=c1cc(CO)oc(C(Nc2ccccn2)c2cccc(F)c2)c1O (stereo not given)
 : -1	-45%[inhibitor]	0.4%	-1.4	10µM*	1	4%
2) O=C(NC1(c2ccccc2)CC1)C1CCC(=O)N(Cc2ccc(Cl)cc2)C1 (stereo not given)
 : 2	29%	1.1%	·	10%	-5	-5%
3) O=c1c2c3c(sc2n2cnnc2n1CCc1ccccc1)CCCC3
 : 0	-45%[inhibitor]	-2.8%	3.0	?	-12	-9%
4) NS(=O)(=O)c1ccc(NC(=O)COC(=O)Cc2c[nH]c3ccccc23)cc1
 : 1	-2%[15.4 µM]	-0.6%	·	·	·	-10%
5) COc1cccc(NC(=O)c2oc3ccccc3c2NC(=O)C2CC2)c1
 : -3	28%	-17%	-3.5	-10%	2	?
6) CCN(Cc1ccccc1)Cc1c(F)cccc1F
 : 13	-10%	0.3%	-0.7	?	-26	-13%
7) CCc1cccc2c1NC(=O)C2(O)CC(=O)c1cccs1 (stereo not given)
 : -14	-20%[15.4 µM]	·	0.2	16%	3	-1%
8) CSc1ccccc1NC(=O)c1ccc(Br)o1
 : 7	1%	1.4%	-0.8	5%	0	-5%
9) COC(=O)c1ccc(NC(=O)CSc2nnc(COc3ccccc3)n2C)cc1
 : 7	-18%	-0.1%	-1.2	4%	28	7%
10) CC(=O)Nc1ccc(NC(=O)c2ccccc2CCc2ccccc2)cc1
 : 5	16%[15.4 µM]	-0.1%	-5.3	15%	-3	-12%
11) C=CCN1C(=O)N/C(=C/c2ccccc2OCC(=O)Nc2ccc(F)cc2)C1=O
 : ·	29%	-5.9%	1.2	-20%	-8	-23%
12) O=c1ccc(-c2ccc(S(=O)(=O)Nc3ccccc3)o2)n[nH]1
 : ·	-2%	-0.2%	·	8%	15	3%
13) CCC(=O)Nc1c2c(nn1-c1ccc(C)cc1C)CSC2
 : -7	3%	2.0%	-2.5	?	4	13%
14) O=C(COc1ccc2c(C(F)(F)F)cc(=O)oc2c1)Nc1ccc(N2CCOCC2)cc1
 : 1	17%	1.4%	10	2%	-4	12%
15) COc1ccccc1Oc1coc2cc(O)ccc2c1=O
 : 2	?	28µM*	0.8&0.1	-15%&23%	-6	3%
16) CCn1ncc(Br)c1C(=O)NC1CCCCCCC1
 : 2	-21%	-2.0%	·	6%	-19	-3%
17) O=C(NCc1cccnc1)c1ccc(Cl)c(S(=O)(=O)Nc2ccccc2C(=O)NCc2cccnc2)c1
 : 5	-1%[15.4 µM]	1.3%	-3.7	11%	8	8%
18) COC(=O)c1cn(-c2ccccc2)nc1-c1ccccc1
 : 19	2%	-0.8%	3.6	9%	-15	-4%
19) CC1(C)CC(NC(=O)c2ccc3c(c2)OCO3)CC(C)(C)N1
 : 9	11%	-14%	0.7	2%	15	7%
20) O=C(c1ccc2ccccc2c1)N1CCN(Cc2ccccc2)CC1
 : -6	20%	-8.0%	-3.6	4%	-8	0%
21) Cc1cccc(OCC(=O)N2CCN(C(=O)c3ccc([N+](=O)[O-])cc3)CC2)c1
 : -19	-3%[15.4 µM]	·	-1.2	23%	0	1%
22) COc1ccc(C/C(N)=N/n2cnnc2)cc1
 : 5	20%	-0.5%	4.8	12%	10	6%
23) Cc1ccccc1C(=O)NC1CCN(Cc2nnnn2CCc2ccccc2)CC1
 : 2	-2%	-0.9%	0.3	19%	10	-4%
24) COC(CNC(=O)CCc1c(C)nc2c(-c3ccccc3)c(C)nn2c1C)OC
 : 3	?	0.8%	-5.0	-8%	?	-1%
25) CS(=O)(=O)c1[nH]nc(-c2cccc(Cl)c2)c1C#N
 : 2	0%[15.4 µM]	·	2.2	25%	12	-14%
26) CCOc1ccc(-c2[nH]nc3c2C(c2ccc(O)cc2)C(C#N)=C(N)O3)cc1 (stereo not given)
 : 10	-25%	1.9%	1.3	6%	-1	-6%
27) O=C1OCCN1C(=O)[C@H]1[C@H](c2ccccc2)C(c2ccc(F)cc2)=NN1c1ccc(Br)cc1
 : -2	·	4.7%	-0.3	24%	·	-3%
28) CCOC(=O)c1ccc(CN(Cc2ccc(C)cc2)S(=O)(=O)c2cccc([N+](=O)[O-])c2)cc1
 : 2	-1%	1.2%	3.1	8%	3	20%
29) NS(=O)(=O)c1ccc(NC(=O)COc2ccc(S(=O)(=O)N3CCCC3)cc2)cc1
 : 7	-14%	·	-0.2	17%	-2	-1%
30) CCOc1cccc2cc(C(=O)N3CCc4ccccc4C3)c(=O)oc12
 : -9	-1%	-3.0%	3.9	-13%	6	-3%
31) COCCn1c(SCC(=O)N2CCCc3ccccc32)nnc1-c1ccoc1C
 : 2	-29%	-0.3%	0.4	10%	9	6%
32) Cc1cc(NC(=O)c2ccc([N+](=O)[O-])o2)ccc1NC(=O)c1ccco1
 : -16	-64%[inhibitor]	-1.7%	-1.0	3%	-11	-23%
33) CN(Cc1ccc(Br)s1)C(=O)CNC(=O)c1ccc2c(c1)OCO2
 : 0	0%	-1.9%	·	·	-20	-2%
34) O=C(c1ccccc1)c1ccc(-c2ccc(O)cc2)cc1
 : -19	1%	·	0.9	8%	1	-11%
35) COCCN(C(=O)COC(=O)/C=C/c1ccc(C(F)(F)F)cc1)c1c(N)n(Cc2ccccc2)c(=O)[nH]c1=O
 : -1	-9%[15.4 µM]	0.5%	·	·	2	0%
36) CN(CC(=O)Nc1ccncc1)S(=O)(=O)c1ccccc1
 : 3	7%	3.6%	1.1	14%	-3	1%
37) C[C@H]1CN([C@@H](C)CO)C(=O)CCCn2nncc2CO[C@@H]1CN(C)Cc1cccc(O)c1
 : -29	-2%	-0.6%	·	·	·	·
38) CCn1c(COc2cccc3ccccc23)nnc1SCC(=O)OC1CCCCC1
 : 1	-11%	-2.0%	4.9	-9%	2	?
39) C=CCN1CCN(C(c2cccc(OC)c2OC)c2nnnn2CCC(C)C)CC1 (stereo not given)
 : 0	4%[15.4 µM]	0.2%	-0.7	-29%	13	2%
40) CCCc1cc(=O)[nH]c(SCC(=O)c2cc(C)n(-c3c(C)n(C)n(-c4ccccc4)c3=O)c2C)n1
 : 0	13%[15.4 µM]	·	-1.7	20%	-3	·

Some values from above.
Under CtBP-E1A blk, compound 26 has 10
Under gsp agonist, compound 30 has -1%

Next section
Sequence of screens: CtBP-E1A blk	gsp agonist	ClpP mod	Menin-MLL FL inh	Sfp inh	TRPV1 PAM	gsp antag
41) COCCNC(=S)N(CCc1c(C)[nH]c2ccccc12)Cc1ccco1
 : -6	7%	-2.7%	-1.9	17%	8	-1%
42) COc1ccc(C2=NN(C(C#N)c3ccc(OC)c(OC)c3)C(c3ccccc3)C2)cc1 (stereo not given)
 : 10	-15%	-4.4%	4.5	-18%	-19	-8%
43) CCOC(=O)Cc1csc(NC(=O)COc2c(C)cccc2C)n1
 : ·	?	1.7%	0.1	8%	13	-6%
44) O=c1c(Cc2c(F)cccc2Cl)c(O)ccn1Cc1ccc2c(c1)OCO2
 : 6	-28%	0.4%	0.6	2%	3	1%
45) CCS(=O)(=O)c1nc(S(=O)(=O)c2ccc(C)cc2)c(N2CCC(O)CC2)s1
 : -6	?	-2.1%	·	6%	1	10%
46) CSc1cccc(CNC(=O)C2CCC(=O)N(CCc3ccccn3)C2)c1 (stereo not given)
 : -9	-44%[inhibitor]	-0.4%	-1.9	-1%	2	0%
47) COc1ccccc1CNC(=O)C1CSC2(C)CCC(=O)N12 (stereo not given)
 : 11	?	1.7%	·	·	-1	10%
48) O=C(CSc1nccc(=O)[nH]1)NN(c1ccccc1)c1ccccc1
 : 1	-5%[15.4 µM]	-0.7%	-1.7	-3%	-3	-18%
49) CC1CCN(C(=O)CN(Cc2ccc(Cl)cc2)S(C)(=O)=O)CC1
 : -10	-28%	·	-1.6	-1%	10	7%
50) Cc1cc(C)c(S(=O)(=O)c2ccccc2)c(N2CCOCC2)n1
 : 13	-15%	·	-3.8	24%	2	1%
51) COc1cccc(-c2cc(C(F)(F)F)n3ncc(C(=O)N4CCc5ccccc5C4)c3n2)c1
 : 3	?	·	0.6	0%	-10	-20%
52) CCOC(=O)c1c(-c2ccc(Cl)cc2)c(C#N)c(=O)n(N)c1N
 : 6	15%	?	2.4	4%	3	-1%
53) CCn1c(C(=O)N2CCC(C(=O)NCc3cccs3)CC2)cc2sccc21
 : 3	?	0.2%	-1.0	0%	1	-4%
54) Nc1nnc(-c2cccc(F)c2)s1
 : -6	17%	·	0.9	-8%	4	7%
55) CCOC(=O)c1ccccc1NC(=S)N1CCC(C)CC1
 : 5	4%[15.4 µM]	2.4%	3.6	6%	1	3%
56) CN(Cc1cccnc1)C(=O)CNC(=O)COc1ccccc1
 : 3	14%[15.4 µM]	·	-4.0	-1%	-19	4%
57) CC1CN(S(=O)(=O)c2ccc(C(=O)Nc3nccs3)cc2)CC(C)O1 (stereo not given)
 : -12	-9%	-2.8%	-5.0	-4%	-1	-6%
58) Cc1ccsc1C(=O)OCC(=O)Nc1cccc(S(=O)(=O)N2CCOCC2)c1
 : -21	2%[15.4 µM]	·	3.6	8%	-18	-8%
59) CCCC1=C([O-])C2N=CC=CC2=[N+](c2ccccn2)C1=O (stereo not given)
 : 20	-41%[inhibitor]	1.3%	8.9	17%	5	6%
60) CC(NC(=O)C1CC1)C(c1cccs1)N1CCOCC1 (stereo not given)
 : -2	-24%	-1.5%	0.6	10%	9	12%
61) CCOC(=O)c1c(C)nc(C)c(C(=O)OCC)c1-c1ccc(O)c(OC)c1
 : -5	13%[15.4 µM]	·	0.4	32µM*	-8	10%
62) CC(C)N(C(=O)CN1C(=O)NC(c2ccccc2)(c2ccccc2)C1=O)C(C)C
 : 5	-2%	·	0.2	-7%	5	10%
63) CCC(=O)NC(=S)Nc1ccccc1C(F)(F)F
 : 9	-5%	32µM*	·	·	·	3%
64) O=C(CS(=O)(=O)c1c[nH]c2ccccc12)N1CCCCC1
 : -3	-1%	-0.4%	-8.5	13%	-4	14%
65) COc1ccc2oc(C(=O)NCCc3ccccc3)c(C)c2c1
 : -6	-2%[15.4 µM]	·	·	·	2	-2%
66) CCC(C(=O)OCC(=O)NC(=O)NC(C)(C)C)c1ccccc1 (stereo not given)
 : ·	2%	1.9%	-0.7	8%	-6	1%
